Screening results: PubChem, National Center for Advancing Translational Sciences (NCATS)
StopGo reporter: lowers the luciferase signal of an FMDV 2A StopGo reporter; 410,000 compounds, 1.2% hits; Potency, µM (titrated, usually from 57.9 µM), without a hit: at the top dose signal change, negative = less light; AID 1159524; human cells with a luciferase reporter of 2A StopGo recoding; control for the full effect not named in the record; active = well fitted falling curve with a large enough effect; inconclusive = small, poorly fitted or top-dose-only effect; inactive = no such curve, though single readings can be large or run the other way; tested in HEK293T cells; also: % is scaled to controls: 0 for no effect and ±100 for the full control effect; nearly all actives have a fitted effect of over 45% in size; luciferase light after 4 h
Cruzain noTriton: inhibitors of Trypanosoma cruzi cruzain without detergent | purified cruzain, Z-FR-AMC fluorescence, no detergent | P25779 | 200,000 compounds, 2.3% hits | Potency, µM, inactives show max response, negative = inhibition, most hits filed as inhibitors | AID 1476;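 also: plate controls were enzyme without inhibitor for no effect and buffer without enzyme for full effect; nearly all actives have a fitted effect of over 40% in size; top concentration of the series not given in the record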
Target sequence (P25779 123-467 limits assumed): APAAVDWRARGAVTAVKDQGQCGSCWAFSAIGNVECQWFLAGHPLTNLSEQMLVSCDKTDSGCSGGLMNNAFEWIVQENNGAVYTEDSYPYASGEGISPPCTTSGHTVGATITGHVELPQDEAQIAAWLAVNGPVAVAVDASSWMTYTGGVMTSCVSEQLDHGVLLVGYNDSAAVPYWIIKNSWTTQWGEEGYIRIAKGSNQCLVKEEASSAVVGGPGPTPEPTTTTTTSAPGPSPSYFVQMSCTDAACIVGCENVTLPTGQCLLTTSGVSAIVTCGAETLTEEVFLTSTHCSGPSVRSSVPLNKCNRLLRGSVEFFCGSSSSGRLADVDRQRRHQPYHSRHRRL
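Purified cruzain at 1.5 nM, pre-incubated 15 min with compound at room temperature in 100 mM sodium acetate pH 5.5, 5 mM DTT, 0.00005% Triton X-100. Reaction started with 2 uM Z-FR-AMC; AMC fluorescence increase over 60 s gives rate.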
LASV entry inh: inhibitors of Lassa virus binding or cell entry; AID 540256; Lassa virus pseudotype entry inhibition, cell reporter; control for the full effect not named in the record; Potency, µM (highest dose often 37.9 µM), inactives show top-dose activity change, negative = inhibition, most hits filed as inhibitors; 300,000 compounds, 1.2% hits; active means well fitted inhibition curve with a large enough effect; inconclusive means small, poorly fitted or top-dose-only effect, or effect the other way; inactive means flat fitted curve, though single readings scatter; tested in HEK293 cells; also: % is scaled to controls: 0 for no effect and ±100 for the full control effect; nearly all actives have a fitted effect of over 50% in size; luciferase read-out
MARV entry inh: Marburg virus entry inhibition. 300,000 compounds, 1.8% hits. Marburg virus pseudotyped entry inhibition, cell reporter; control for the full effect not named in the record; about a third of the inactives were read at about 46 µM. AID 540276. Potency, µM (doses to about 37.8 µM), for inactives: at the highest dose activity change, negative = inhibition, usual class: inhibitors; active = well fitted inhibition curve with a large enough effect; inconclusive = small, poorly fitted or top-dose-only effect, or effect the other way; inactive = flat fitted curve, though single readings scatter; tested in HEK293 cells; about a fifth of its hits are not listed in these tables; also: % is scaled to controls: 0 for no effect and ±100 for the full control effect; luciferase read-out
RE007 growth inh: less growth of the S. pombe RE007 Vpr strain; S. pombe RE007 Vpr strain, BacTiter-Glo ATP luminescence, 24 h; control for the full effect not named in the record; Potency, µM (top dose mostly 92.2 µM), without a hit: at the top dose activity change, negative = less growth; 360,000 compounds, 0.21% hits; AID 651644; active = well fitted falling curve with a large enough effect; inconclusive = small, poorly fitted or top-dose-only effect; inactive = no such curve, though single readings can be large or run the other way;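 also: % is scaled to controls: 0 for no effect and ±100 for the full control effect; nearly all actives have a fitted effect of over 50% in size; the assay follows cell death caused by Vpr and the record does not say whether a fall means rescue or toxicity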
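Fission yeast strain RE007, carrying one chromosomally integrated HIV-1 vpr copy, was seeded at OD 0.01 in PMG+AL medium with 23 nL pinned compound. After 24 h at 30 °C and 99% humidity, viability was read by BacTiter-Glo luminescence.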
Cruzain inh Det: cruzain (T. cruzi) inhibition with detergent | Potency, µM, without a hit: max response, negative = inhibition, hits mostly inhibitors | 200,000 compounds, 0.43% hits | AID 1478 | P25779 | purified cruzain, Z-FR-AMC fluorescence, 0.01% Triton;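 also: plate controls were neutral wells for no effect and buffer without enzyme for full effect; nearly all actives have a fitted effect of over 40% in size; top concentration of the series not given in the record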
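Detergent-containing run (0.01% Triton X-100) in acetate buffer pH 5.5 with 5 mM DTT: enzyme at 1.5 nM final, 15 min compound preincubation at room temperature, then 2 uM Z-FR-AMC substrate. Activity taken as 60 s fluorescence increase at 360/450 nm.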
SARS PLP yeast: blocks SARS-CoV papain-like protease in a yeast assay; S. cerevisiae expressing SARS-CoV PLpro, growth rescue; control for the full effect not named in the record; Potency, µM (series often up to 32.9 µM), for inactives: at the top dose activity, positive = growth rescue; 330,000 compounds, 0.19% hits; active means well fitted rising curve with a large enough effect; inconclusive means small, poorly fitted or top-dose-only effect; inactive means no such curve, though single readings can be large or run the other way; also: 0% is about no effect; nearly all actives have a fitted effect of over 55% in size; growth read by luminescence after 48 h
NS1 inh: blocks influenza NS1 protein function | Potency, µM (series often up to 46.1 µM), without a hit: top-dose activity, positive = more growth | S. cerevisiae slowed by influenza A NS1, growth recovery by OD600 | AID 2326 | 270,000 compounds, 0.4% hits; active means well fitted rising curve with a large enough effect; inconclusive means small, poorly fitted or top-dose-only effect; inactive means no such curve, though single readings can be large or run the other way; also: nearly all actives have a fitted effect of over 50% in size
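A cell-based growth assay was used: compounds that relieve NS1-induced slow growth of budding yeast raise OD600. Assay medium was yeast nitrogen base with ammonium sulphate and -URA supplement, pH 6.0, with 2% galactose.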
An asterisk follows results filed as active; ? = inconclusive; · = not tested or not shown; & = joins results of further samples; [ ] = remark or other dose. Unless noted, calls follow the shape of the dose curve; as a rule, active = well fitted curve in the direction sought with a large enough effect; inconclusive = small, poorly fitted or top-dose-only effect, or another doubt; inactive = no such curve, though single readings can be large; an effect the other way counts as inactive or inconclusive. Potency is read from the fitted curve at half-maximal effect.

SMILES	StopGo reporter	Cruzain noTriton	LASV entry inh	MARV entry inh	RE007 growth inh	Cruzain inh Det	SARS PLP yeast	NS1 inh
COC(=O)NC1CCC(NC(=O)OC)CC1 (stereo not given)	-6.9%	4.1%	12.4%	4.9%	25.9%	-0.2%	22.2%	19.0%
COc1ccc(-n2nc3c(c2NC(=O)C(C)Oc2ccccc2)CS(=O)C3)cc1 (stereo not given)	-15.8%	·	2.4%	15.0%	-2.4%	·	4.6%	?
CCN(CC(=O)NCC(=O)Nc1cccc(C)c1C)Cc1ccccc1	-19.1%	·	·	·	-19.3%	·	-2.8%	-7.1%
C/C(=N\NC(=O)C1CC1c1ccccc1)c1cccs1 (stereo not given)	16.2%	11.7%	7.0%	8.0%	1.4%	4.5%	0.5%	-7.2%
O=C(OC1CCOC1=O)c1ccc(S(=O)(=O)N2CCCCCC2)cc1 (stereo not given)	21.8%	2.7%	16.2%	-15.0%	5.5%	3.0%	7.5%	-13.9%
CC(C)N1CCN(Cc2cccc3nonc23)CC1CCO (stereo not given)	-8.7%	·	·	·	-9.5%	·	1.4%	3.6%
c1ccc(Cc2nc3ccccc3s2)cc1	21.0%	·	8.0%[46.1 µM]	-2.8%[46.1 µM]	-14.8%	·	·	·
Cc1cc2oc(C(=O)Nc3nonc3C)c(C)c2cc1Cl	41.0%[activator]	·	·	·	3.9%	·	?	-1.7%
CC(=O)/C(=N\Nc1ccc(Cl)cc1Cl)Sc1cccc2cccnc12	6.9%	?	11.2µM*	?	?	4.7%	-2.3%	-29.3%
CCCc1cc(=O)[nH]c(SCc2nc(-c3ccc(OC)cc3)no2)n1	-6.1%	-27.7%	10.1%[46.1 µM]	·	·	-1.4%	·	·
Cn1c(=O)cc(SCC(=O)NCCCN2CCN(c3ccccc3F)CC2)c2ccccc21	-15.6%	2.1%	?	?	-4.5%	-8.7%	10.3%	-0.7%
CCOC(=O)CCCCC(=O)c1[nH]c(=O)[nH]c1CSCCO	·	-1.0%	-4.0%	10.5%	-1.9%	3.9%	13.9%	9.8%
COc1cccc(CC(=O)Nc2cc(C(F)(F)F)ccc2N2CCCC2)c1	-29.3%	·	·	·	31.3%	·	1.9%	9.8%
NS(=O)(=O)c1ccc(CCNS(=O)(=O)c2ccc3c(c2)NC(=O)CO3)cc1	8.1%	·	28.9%[46.1 µM]	7.2%[46.1 µM]	-5.4%	·	-3.4%	5.9%
CSCC(=O)N1CCCC(CNC(=O)c2ccc(-c3ccccc3)cc2)C1 (stereo not given)	-4.0%	·	-1.5%	-0.8%[46.1 µM]	7.0%	·	-0.5%	-3.9%
COc1ccc(CCNC(=O)CCc2c(C)c3cc4c(C)c(C)oc4cc3oc2=O)cc1OC	-20.9%	6.8%	26.1%[46.1 µM]	-2.4%[46.1 µM]	·	0.5%	·	·
Cc1n[nH]c(=S)n1/N=C/c1c(O)ccc2ccccc12	-12.8%	·	-2.1%[46.1 µM]	?	7.5%	·	-7.2%	-28.5%
O=C(CNC(=O)c1ccc(Cl)c([N+](=O)[O-])c1)NCC1CCCO1 (stereo not given)	-0.5%	·	-13.8%[46.1 µM]	-23.7%[46.1 µM]	-6.0%	·	-3.0%	-36.5%
CCc1nnc(NS(=O)(=O)c2ccc(NC(=S)Nc3ccc(F)cc3)cc2)s1	-10.2%	11.6%	-1.4%	?	-14.0%	-4.3%	7.2%	23.3%
CCN(CC)C(=O)Cn1nc(C)c2ccccc2c1=O	0.0%	-0.1%	11.8%	-2.5%	19.4%	1.8%	4.7%	3.4%
CC(=O)NCCCNc1ccc([N+](=O)[O-])cc1	9.0%	-18.0%	-9.5%	-2.5%	9.1%	-8.4%	-8.2%	-9.0%
COc1ccc(C(=O)O/N=C2\CCCc3nonc32)cc1	-7.0%	-20.9%	11.8%	7.3%	·	-2.2%	3.9%	-7.4%
COc1cc(CNCCSc2nnnn2C)ccc1OCc1ccccc1	28.8%	-10.3%	12.4%[46.1 µM]	2.6%[46.1 µM]	·	0.1%	·	·
Cc1cc(=O)[nH]c(N/N=C/c2c(C)nn(-c3ccc(F)cc3)c2Cl)n1	?	·	7.5%	-0.1%[46.1 µM]	-12.3%	·	-1.7%	·
CN(C)c1ncnc2c1NC1=C(S2)C(=NCCCC(=O)O)CC(C)(C)C1	-24.2%	-11.4%	2.2%	0.3%	-26.5%	-6.3%	-2.9%	5.1%
Cc1ccc(-c2nc(C(F)(F)F)cc(=O)[nH]2)cc1	-14.4%	·	·	·	-3.7%	·	-0.4%	0.4%
Cc1nc2cc(N)ccc2n1-c1ccccc1	-18.6%	·	-24.4%	-4.4%[46.1 µM]	-15.8%	·	2.6%	8.8%
CCCCNC(=O)c1ccccc1NC(=O)CCSc1ccccc1	-22.9%	5.8%	-14.0%	5.1%	15.9%	-12.3%	-30.1%	-26.3%
COc1ccccc1CNC(=O)C1CCCN(S(=O)(=O)c2cccc3nonc23)C1 (stereo not given)	8.1%	·	·	·	5.2%	·	1.1%	7.0%
O=C(c1ccc2c3c(cccc13)CC2)C1CCCN(Cc2ccccn2)C1 (stereo not given)	0.0%	·	3.1%	?	?	·	-0.4%	-2.8%
CCOc1cc(CNCCc2c[nH]c3ccccc23)cc(Cl)c1OCC	-3.2%	2.6%	-19.1%	?	2.7%	-2.1%	-15.8%	-13.1%
COc1ccc(C)cc1NC(=O)C1CCCN1C(=O)OCc1ccccc1 (stereo not given)	-19.2%	-2.6%	-15.9%	3.4%	-1.2%	3.2%	0.2%	-11.6%
CCOC(=O)c1sc(=NC(=O)COc2ccccc2)n(C)c1C	52.4%[activator]	·	-16.1%	-4.5%	-5.8%	·	-0.4%	·
CCOc1cc(/C=C/C(=O)N(CC)CC(=O)NCc2cccs2)cc(Cl)c1OC	-24.4%	·	?	?	-3.1%	·	-6.0%	·
COc1ccc(-c2c(C)nn3c(C(F)(F)F)cc(-c4ccccc4)nc23)cc1	0.0%	-13.8%	1.7%[46.1 µM]	1.0%[46.1 µM]	·	-2.1%	·	·
CCOc1ccc(N2C(=O)CC(NNc3nc4ccccc4s3)C2=O)cc1 (stereo not given)	-16.4%	·	19.1%	-2.9%	4.4%	·	-0.5%	4.7%
CCOC(=O)C1=C(C)S/C(=C\N(C)C)C1=O	-10.5%	-2.8%	?	15.1%	-21.7%	-3.5%	-9.3%	-137.0%
Cc1nc(N2CCOCC2)nc(N2CCCCC2C)c1[N+](=O)[O-] (stereo not given)	-23.9%	·	·	·	7.9%	·	-0.6%	-43.6%
Cc1[nH]c(C)c(S(=O)(=O)N2CCN(c3cccc(C(F)(F)F)c3)CC2)c1C(=O)N1CCCC1	-14.8%	·	·	·	7.1%	·	1.3%	-2.6%
O=C(NCCCl)C1Cc2c(ccc3ccccc23)O1 (stereo not given)	11.2%	·	7.7%	6.3%[46.1 µM]	-20.9%	·	-0.4%	4.8%
CCOC(=O)N1CCN(C(=O)CN(C2CCCCC2)S(=O)(=O)c2c(C)cc(C)cc2C)CC1	-0.2%	?	-11.7%	-0.3%	-1.0%[3.69 µM]	2.0%	-5.2%	-11.0%
Cc1ccc(CCNC(=O)C2CCC(=O)N(Cc3ccccc3F)C2)o1 (stereo not given)	77.8%[activator]	·	?	26.0%	-1.6%	·	-1.5%	3.9%
Cc1nn(CC(=O)Nc2ccc3c(c2)OCO3)c(C)c1Cl	30.1%[activator]	·	·	·	1.2%	·	-3.0%	10.6%
CCOC(=O)C1CCCN(C(=O)c2ccc(NS(=O)(=O)c3ccc4[nH]c(=O)[nH]c4c3)cc2)C1 (stereo not given)	-10.8%	·	20.0%	7.3%[46.1 µM]	5.7%	·	-2.3%	·
CCN(CC)CCn1c2c(c(SCC(=O)Nc3ccc4c(c3)OCCO4)nc1=O)CCCC2	3.4%	·	-0.2%	?	3.0%	·	7.6%	·
Cc1cc(NC(=O)CN2CCC(O)(c3cccc(F)c3)CC2)no1	-0.4%	2.7%	-8.6%	28.3%	5.6%	1.2%	6.3%	2.8%
COc1ccc(-n2nc3ccccc3n2)cc1	124.5%[activator]	3.7%	1.4%	23.1%	-27.3%	4.7%	-0.6%	-86.0%
S=C(Nc1ccc(Br)cc1)NC1CCN(Cc2ccccc2)CC1	-15.0%	·	?	?	8.2%	·	-4.9%	0.7%
Cc1ccccc1NC(=O)Cn1nc(C)n2cccc2c1=O	-13.0%	·	·	·	-0.7%	·	0.3%	-4.1%
CNc1c(C(=O)O)ccc2c1C(=O)c1ccccc1C2=O	?	-5.3%	-4.2%	1.8%	-3.0%	-7.8%	0.2%	-10.5%

Further compounds follow.
SMILES	StopGo reporter	Cruzain noTriton	LASV entry inh	MARV entry inh	RE007 growth inh	Cruzain inh Det	SARS PLP yeast	NS1 inh
Cc1ccc(C)c(NS(=O)(=O)c2csc(C(N)=O)c2)c1	22.1%	·	-10.2%[46.1 µM]	2.0%[46.1 µM]	-2.9%	·	-0.3%	-1.6%
Cc1ccc2nc(SCC(=O)Nc3cccc(S(=O)(=O)N(C)C)c3)[nH]c2c1	-38.6%	21.8%	?	?	-0.5%	-5.7%	-6.8%	-4.9%
CCCOC(=O)CCNc1n[nH]c(=O)[nH]c1=O	-20.5%	-5.6%	11.7%	?	16.1%	5.9%	7.3%	-4.9%
COc1ccc(-c2nnc(CSc3nnc(-c4ccncc4)n3C3CCCCC3)o2)cc1OC	-15.0%	-3.8%	21.9%	17.9%&17.9%	-14.4%	2.8%	-3.9%	-9.0%
CCc1ccccc1NC(=O)CSc1nc2[nH]c(=O)cc(O)c2s1	-13.9%	·	10.7%	4.9%[46.1 µM]	3.8%	·	5.5%	17.6%
COC(=O)c1ccccc1N=Nc1c(C)noc1C	6.1%	·	?	4.4%[46.1 µM]	-9.2%	·	-0.6%	-5.4%
